# Compound activity (PubChem BioAssay)
# Insulin prom inh – TRM-6 insulin promoter activity inhibition; TRM-6 cells (human fetal islet line), insulin promoter-eGFP reporter, imaging; reporter expression induced with tamoxifen; inhibition, % at 2 µM; 130,000 tested, 0.9% active; AID 1273;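 active means inhibition above the mean plus 3 SD, with well images judged a real hit on visual review, cut at about 60% in these data, passing the limit was not always enough; inconclusive means inhibition over the cutoff but images rejected on review; inactive means inhibition not above the cutoff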
# HSV replic up – HSV replication enhancement. 220,000 tested, 0.005% active. maximum fold increase. HSV replication augmentation in cells, fold increase;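 active means peak rise of 1.5-fold or more in the series; inconclusive means self-fluorescent or not available for retest; tested in PC3 cells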;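 further: first round at 10 µM; read as green reporter fluorescence; hits show the peak of a series up to 25 µM; 1 = signal of infected wells without compound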
# GALR2 ag – agonists of human galanin receptor 2 (GALR2); O43603; GALR2-expressing cells, agonist activation read-out; activation, %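 (tested at 5 µM)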; 140,000 tested, 0.48% active;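 active means above mean plus 3 SD of all compounds, about 5% in these data, not always enough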;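 further: 0% = vehicle buffer wells and 100% = reference agonist at full effect; tested in CHO reporter cells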
# Target sequence (O43603 whole entry, looked up): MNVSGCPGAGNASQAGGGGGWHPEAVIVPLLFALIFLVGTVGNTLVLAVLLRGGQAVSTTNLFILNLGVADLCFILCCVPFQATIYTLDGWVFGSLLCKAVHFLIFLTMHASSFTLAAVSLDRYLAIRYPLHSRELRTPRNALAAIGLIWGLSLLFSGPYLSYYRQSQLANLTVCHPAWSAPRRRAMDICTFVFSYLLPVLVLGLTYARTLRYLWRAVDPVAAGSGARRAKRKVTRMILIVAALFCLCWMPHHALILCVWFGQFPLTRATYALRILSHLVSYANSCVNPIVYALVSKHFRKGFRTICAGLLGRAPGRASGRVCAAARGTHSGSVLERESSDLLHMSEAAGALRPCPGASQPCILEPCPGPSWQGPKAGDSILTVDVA
# RGS16-Gao – modulates binding between human RGS16 and Galphao; O15492+P09471; bead-based flow cytometry RGS16-Galphao binding, fluorescence; actives lie on both sides; binding response (% of control), % at 10 µM; 220,000 tested, 0.38% active; AID 1441;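 active means below 25% or above 175%, edge rows of some plates excepted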;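 further: Galphao activated by GDP with aluminum fluoride before binding; 100% = wells without compound and 0% = beads without RGS; some results beyond the cut were filed as inactive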
# Target sequence (O15492 whole entry, looked up): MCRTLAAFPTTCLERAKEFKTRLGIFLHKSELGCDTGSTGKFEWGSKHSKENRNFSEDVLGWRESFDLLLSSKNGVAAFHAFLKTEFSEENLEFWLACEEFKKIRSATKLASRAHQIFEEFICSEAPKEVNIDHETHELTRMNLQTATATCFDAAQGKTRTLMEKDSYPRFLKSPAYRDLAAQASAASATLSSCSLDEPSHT
# Target sequence (P09471 whole entry, looked up): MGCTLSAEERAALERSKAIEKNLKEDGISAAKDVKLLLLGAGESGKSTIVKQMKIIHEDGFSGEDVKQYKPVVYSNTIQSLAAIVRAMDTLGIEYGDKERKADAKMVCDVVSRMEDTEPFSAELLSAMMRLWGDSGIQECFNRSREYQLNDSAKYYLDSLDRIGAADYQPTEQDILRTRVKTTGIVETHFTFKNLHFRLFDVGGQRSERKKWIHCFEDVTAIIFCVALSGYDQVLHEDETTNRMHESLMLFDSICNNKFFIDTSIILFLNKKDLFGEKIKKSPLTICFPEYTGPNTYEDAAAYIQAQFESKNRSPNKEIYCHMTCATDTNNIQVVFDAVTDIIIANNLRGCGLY
# PKD1 kinase inh – blocks activity of human protein kinase D1 | 200,000 tested, 0.056% active | inhibition, %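 (about 10 µM by stock and volumes)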 | PKD1 kinase fluorescence polarization assay | AID 797;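 active means inhibition of 50% or more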;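 further: controls were vehicle for no effect and a reference inhibitor for full effect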
# Insulin prom inh cell count – also measured in Insulin prom inh; calls as there; normalized cell count, %; measured here: cell count, toxicity; reference of the scale not given here;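 cells exposed to compound for 48 h; stained nuclei by imaging scaled within each plate; lower means fewer cells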
# HSV replic up primary fold – second read-out of HSV replic up, no call of its own (marks repeat the call); fold increase; compound at 10 µM; measured here: primary screen fold increase 10 uM; tested in PC3 cells;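 GFP signal in the first replicate; 1 = infected wells without compound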
# * = called active by the depositor; i = inactive; u = inconclusive; x = no result given. Not a hit list; about 1.3% have a hit in one of these screens.
# Values run as follows: Insulin prom inh	Insulin prom inh cell count	HSV replic up	HSV replic up primary fold	GALR2 ag	RGS16-Gao	PKD1 kinase inh
- N#Cc1c(SCC(=O)O)nc(N2CCCCC2)c2c1CCCC2
 : 21	86	i	0.67	-2.4	103	-9
- Cn1c(CNc2ccccc2)cc(=O)n(C)c1=O
 : -28	88	i	0.82	-1.2	99	-2
- Cc1ccc2c(CC(=O)OCC(=O)Nc3ccc(Cl)cn3)coc2c1
 : -100	61	i	1	-2.0	97	0
- COCCCNC(=S)N1CCCN(c2nc3cc(C)ccc3cc2C#N)CC1
 : -35	77	i	1	x	99	-3
- COc1ccc(S(=O)(=O)N=C2C=C(C)C(=O)C(C)=C2)cc1
 : -54	114	i	1.2	-3.0	107	3
- CCc1cc(C(c2ccc(F)cc2)N2CCOCC2)c(NC(=O)c2ccccc2)s1 (stereo not given)
 : x	x	i	0.92	-1.1	95	1
- CCN(CC)S(=O)(=O)c1ccc(OCCNS(C)(=O)=O)cc1
 : x	x	i	1.1	x	99	3
- Cc1cc(C)nc(NN=C2CCCC2)n1
 : x	x	i	1.1	-0.8	102	2
- C(=C\c1ccccn1)/c1ccncc1
 : x	x	i	1.1	x	94	x
- O=C1CSC2(C(=O)N3CCCc4cccc2c43)N1c1cccc(C(F)(F)F)c1 (stereo not given)
 : -36	317	i	1	-3.7	103	-6
- O=S(=O)(NCc1ccccn1)c1ccc(F)cc1
 : 42	105	i	0.91	0.4	105	-9
- Cc1ccc(C(=O)Nc2cccc(-c3cnc4ccccc4n3)c2)cc1
 : x	x	i	1	-1.9	57	-9
- CC(=O)Oc1ccc(Cl)cc1/C=C/c1ccc2ccccc2n1
 : x	x	i	0.87	0.2	102	5
- O=C1N(c2cccc3ccccc23)C(c2ccccc2)N2CCCN12 (stereo not given)
 : 25	126	x	x	-0.9	61	-6
- O=C(O/N=C(/c1ccccc1)c1ccncc1)c1ccc(F)cc1
 : 47	118	i	0.96	x	90	-5
- C=CCn1c(=O)c2ccccc2n2c(SCC(=O)N3CCCc4ccccc43)nnc12
 : x	x	i	1.1	-1.2	93	0
- COc1ccc(NC(=O)c2ccc(-c3ccc([N+](=O)[O-])cc3)o2)cc1OC
 : 24	116	i	0.97	0.0	104	-6
- CC(C)CC(=O)Nc1ccccc1N1CCN(C(=O)c2ccccc2)CC1
 : -267	56	x	x	-1.4	103	5
- CC(=O)Nc1ccc2c(c1)C(=O)N(C1CCCCC1)C2=O
 : 38	99	i	0.9	-2.1	101	-7
- c1ccn2c(SCc3cn4ccsc4n3)nnc2c1
 : 17	191	i	0.93	-0.2	93	-1
- Cn1c(SCC(=O)NCc2ccc(F)cc2)nc2ccccc21
 : x	x	i	0.91	-0.8	104	1
- CC1(C)CC(NC2C3CC4CC(C3)CC2C4)CC(C)(C)N1 (stereo not given)
 : x	x	i	1	x	93	x
- COc1ccc2cc3cc(C(=O)NCCN4CCc5ccccc5C4)oc3nc2c1
 : 3	77	i	0.89	-1.5	103	4
- Cc1[nH]nc2nc(SCC(=O)NCC3CCCO3)n(-c3ccc(Br)cc3)c(=N)c12 (stereo not given)
 : -12	142	i	1.1	1.2	103	-9
- O=S(=O)(NC(=S)NC1CCCCC1)c1cccs1
 : x	x	i	0.94	x	98	-6
- COc1ccccc1OCc1ccc(C(=O)NC(C)(C)C)o1
 : 2	83	i	0.89	-1.3	101	-5
- CCC(=O)Nc1cccc(NC(=S)NC(=O)c2ccc(C)cc2)c1
 : x	x	i	1	x	102	-2
- CCC(=O)Nc1ccc2c(c1)C(=O)c1ccccc1C2=O
 : -12	130	i	0.84	-0.5	99	-6
- COc1cc2c(cc1OC)C(C)N(C(=O)c1cc3c(s1)-c1c(C)cccc1OC3)CC2 (stereo not given)
 : 30	86	x	x	-0.1	102	-8
- CCCn1c(=O)c(C(=O)NCc2ccncc2)c(O)c2ccccc21
 : x	x	i	0.78	-0.6	91	3
- c1ccc(OCCOc2ncnc3sccc23)cc1
 : -5	118	i	1	-2.6	98	-4
- N#CC1=C(N)Nc2ncnn2C1c1ccc(F)cc1 (stereo not given)
 : -223	141	i	0.85	-1.7	97	-7
- COc1ccc(CCNC(=O)C2(C)CCC(=O)N2Cc2ccc3c(c2)OCO3)cc1OC (stereo not given)
 : x	x	i	0.77	-1.7	113	-11
- NNC(=O)CCc1ccc(S(=O)(=O)N2CCOCC2)cc1
 : 81*	94*	i	0.91	x	100	-4
- O=[N+]([O-])c1ccc2nc(/C=C/c3ccc(Cl)cc3)[nH]c2c1
 : 30	86	i	0.9	-0.7	100	0
- Cc1c(C(=O)Nc2ccc(Cl)cc2)c2ccccn2c1C(=O)c1ccc([N+](=O)[O-])cc1
 : 15	155	i	0.86	0.0	103	-2
- O=S(=O)(NCc1cc(-c2ccccc2)no1)c1ccc(Cl)cc1
 : -12	91	i	0.79	-2.6	97	-1
- COc1ccc(N(C(=O)c2ccc(C)cc2)S(=O)(=O)c2cccs2)cc1
 : -4	171	i	0.78	-2.4	48	-2
- COc1ccccc1Cn1nnc2c(=O)[nH]c(C3CCN(C(=O)c4ccc(C)cc4)CC3)nc21
 : -9	44	x	x	-2.4	100	2
- O=C(NCc1ccco1)/C(=C/C=C/c1ccccc1)NC(=O)c1ccco1
 : 48	124	i	0.95	x	107	1
- CC(C)C(NS(=O)(=O)c1cccc2nsnc12)C(=O)N1CCc2ccccc2C1 (stereo not given)
 : x	x	i	0.9	-1.8	106	11
- C=CCn1c(-c2ccccc2OC)n[nH]c1=S
 : x	x	i	0.98	-0.3	99	6
- CCCCOC(=O)CSc1nc(N)c(C#N)c(-c2ccc(OCC)cc2)c1C#N
 : 7	104	i	1	-1.5	93	-2
- Cc1ccc(CN2CCN(Cc3cnc(N4CCOCC4)s3)CC2CCO)o1 (stereo not given)
 : -6	123	i	0.92	x	104	-1
- Cc1ccc(S(=O)(=O)N(C)c2ccc3sc(C)nc3c2)cc1
 : x	x	i	0.9	x	101	-5
- CCOc1ccccc1N1Cc2ccccc2C1
 : 14	145	x	x	-4.2	97	-19
- CC1=C(C(=O)OCC2CCCO2)C(c2coc3ccccc3c2=O)C2=C(CCCC2=O)N1 (stereo not given)
 : 7	117	i	1.1	x	99	7
- CSCCC(NS(=O)(=O)c1ccc2c(c1)oc(=O)n2C)C(=O)NCc1ccccc1 (stereo not given)
 : x	x	i	1.1	x	107	x
- O=c1c2ccccc2nc(SCc2cn3ccsc3n2)n1-c1ccccc1
 : x	x	i	0.87	-0.1	104	0
- COc1ccccc1N1CCN(C(=O)COc2cc(C)cc(C)c2)CC1
 : x	x	i	0.86	x	106	-3
- COc1ccc(-c2csc3nc(-c4ccc(C)cc4)oc(=O)c23)cc1OC
 : 22	108	i	0.87	0.8	117	0
- CCN(CC)c1ccc(C2C(C(=O)OCCOC)=C(C)NC3=C2C(=O)CCC3)cc1 (stereo not given)
 : x	x	i	1.1	-1.2	96	4
- COc1c(Cl)cc(Cl)cc1CNCCNCC(C)O (stereo not given)
 : x	x	i	0.94	-1.4	91	0
- O=C(NCCN1CCCCC1)c1c(O)c2ccccc2[nH]c1=O
 : -9	87	i	1	0.1	123	4
- CCOCCCn1c(SCC(=O)Nc2ccc(C(N)=O)cc2)nc2ccccc2c1=O
 : 6	141	i	0.87	-0.2	95	-2
- Cc1cc(NC(=O)/C=C/c2cccc(Cl)c2)n(-c2nc3ccccc3[nH]2)n1
 : -300	110	i	0.9	-1.5	101	-3
- COc1ccc(CNS(=O)(=O)NCc2ccccc2)cc1
 : 8	137	x	x	x	105	-6
- Cc1ccc(-n2nnnc2SCc2ccccn2)cc1C
 : -43	141	x	x	-1.3	109	-6
- COc1ccc(S(=O)(=O)N2CCC(C(N)=O)CC2)c2ccccc12
 : -14	137	i	0.91	-1.7	94	-15
- O=C(NCc1csc(-c2cccs2)n1)C1CCC1
 : x	x	i	0.97	x	112	x

# More records follow.
# Values run as follows: Insulin prom inh	Insulin prom inh cell count	HSV replic up	HSV replic up primary fold	GALR2 ag	RGS16-Gao	PKD1 kinase inh
- O=S(=O)(Nc1ccc2c(c1)OCCO2)c1ccc2oc3ccccc3c2c1
 : -347	61	i	1.2	-2.6	100	-8
- CCCOc1ccc(C(=O)Nc2ccc(S(=O)(=O)Nc3cc(C)nc(C)n3)cc2)cc1
 : x	x	i	1.1	x	92	x
- CC(C)CC(c1nnnn1CCc1ccccc1)N1CCC(C(N)=O)CC1 (stereo not given)
 : 100*	41*	i	1.1	-3.0	104	-10
- CC(=O)c1cnc2cc(C)nn2c1C
 : 3	99	i	0.98	-2.6	95	-8
- CCc1ccc(C(=O)N2CCN(c3ccc(F)cc3)CC2)s1
 : 31	143	i	1	-3.1	106	1
- Clc1ccc(-c2nc3ccccc3n2OCc2ccccc2)cc1
 : x	x	i	1.1	-0.2	97	2
- Oc1ccc(-c2nc3ncccn3c2Nc2ccc3c(c2)OCO3)cc1
 : 36	111	i	0.92	-2.8	98	0
- O=S(=O)(c1ccc(NC(=S)N/N=C/c2ccc(O)c(O)c2)cc1)N1CCOCC1
 : x	x	i	0.82	x	97	x
- CCN(CC)C(=O)c1sc2c(c1C)c(=O)n(-c1ccc(C)c(C)c1)c(=O)n2CC(=O)NCC1CCCO1 (stereo not given)
 : 83*	27*	i	1.1	x	107	-1
- CC(NC(=O)/C=C/c1cnc2ccccc2n1)C12CC3CC(CC(C3)C1)C2 (stereo not given)
 : 42	137	i	0.84	-0.5	103	4
- CC(C)NC(=S)N/N=C/c1c[nH]c2ccccc12
 : 15	127	i	0.91	-0.9	108	-11
- N#CC1=C2C=Cc3ccccc3N2CCCC1=O
 : 17	136	i	0.99	-3.1	105	-8
- CCOC(=O)c1ccc(Nc2cc(C)nc(C)c2C(=O)OCC)cc1
 : 51	178	i	0.96	-3.3	98	-3
- CC1(C)CC(=O)C2=C(C1)NC(=O)CC2c1ccc(F)cc1 (stereo not given)
 : x	x	i	0.84	-2.6	53	-2
- CN(C)c1ccc(/C=C/C(O)=C2/C(=O)N(C)C3(C)CC2c2ccccc2O3)cc1 (stereo not given)
 : -64	129	u	x	4.3	84	-8
- O=C(NC1CCCC1)C1CCC(=O)N1C1CCCCC1 (stereo not given)
 : 21	120	i	0.95	x	97	4
- COc1ccc(-c2cc(C(F)(F)F)nc(SCCC(=O)NCc3ccccc3)n2)cc1
 : -36	125	i	1	-0.8	103	-7
- C=CCn1c(-c2cccc(OCC)c2)n[nH]c1=S
 : x	x	i	1	x	105	8
- CC(C)C(NC(=O)C1CCCCC1)C(=O)NCCc1ccccc1 (stereo not given)
 : x	x	i	0.97	x	86	-12
- COc1ccc(CCNC(=O)Cn2c(=O)n(-c3ccc(F)cc3F)c(=O)c3sccc32)cc1OC
 : -7	92	i	0.92	x	95	-5
- O=C(CN1C(=O)C2C3C=CC(C3)C2C1=O)NCc1ccc2c(c1)OCO2 (stereo not given)
 : 10	65	i	0.92	-6.4	96	-4
- O=S(=O)(NCc1cc(-c2ccccc2)no1)c1ccccc1
 : 44	99	i	1.1	x	99	-5
- COCCCNC(=O)c1c(N)n(/N=C/c2cccs2)c2nc3ccccc3nc12
 : 0	133	i	1	20*	103	-11
- CCCCn1c(N)c(N(CC)C(=O)c2cc(OC)cc(OC)c2)c(=O)[nH]c1=O
 : x	x	i	0.8	x	82	1
- C=C1CCN([C@@H](C)C(=O)OCc2cccc(C)c2)S(=O)(=O)c2ccccc21
 : x	x	i	0.93	x	93	x
- COCC(=O)Nc1cccc(Br)c1
 : 15	131	i	0.88	-4.2	108	-3
- CCc1nnc(N2CCN(c3ncnc4c3oc3ccccc34)CC2)s1
 : -100	75	i	0.85	0.8	114	-1
- CCCCC(=O)Nc1ccc(C(=O)Nc2ccc(S(=O)(=O)Nc3nccc(C)n3)cc2)cc1
 : 33	102	i	1	-0.7	50	-6

# Some entries already given, reduced to HSV replic up.
molecule	HSV replic up
COc1ccc(-c2cc(C(F)(F)F)nc(SCCC(=O)NCc3ccccc3)n2)cc1	i
C=CCn1c(-c2cccc(OCC)c2)n[nH]c1=S	i

# Of the compounds above, these contain a CF3 group:
# Values run as follows: Insulin prom inh	Insulin prom inh cell count	HSV replic up	HSV replic up primary fold	GALR2 ag	RGS16-Gao	PKD1 kinase inh
- O=C1CSC2(C(=O)N3CCCc4cccc2c43)N1c1cccc(C(F)(F)F)c1 (stereo not given)
 : -36	317	i	1	-3.7	103	-6
- COc1ccc(-c2cc(C(F)(F)F)nc(SCCC(=O)NCc3ccccc3)n2)cc1
 : -36	125	i	1	-0.8	103	-7
